Sa growth inh – blocks Staphylococcus aureus growth; relative growth, % (no concentration beside the values); 170,000 compounds, 0.53% hits; S. aureus RN4220 growth, OD600, 20 h, 42 °C; stronger effect = lower value;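 active means growth at 42 °C up to 50% and 20 or more points under that at 30 °C, or under 10% at both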;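 further: 300 nL library stock went into each well; scaled to the means of positive and negative controls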
HCMV NEC inh – inhibitors of HCMV UL50-UL53 nuclear egress complex interaction; HTRF UL50-UL53 interaction, normalized percent inhibition; inhibition, % (no concentration beside the values); 190,000 compounds, 0.15% hits;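 active means both replicates at 50% or more, plus weaker picks with an unusually low signal ratio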;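 further: stock transfer was 100 nL into about 20 µL; 0% = negative control wells and 100% = wells with untagged competitor protein; inactives centre near -12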
GIV-Gai inh – inhibitors of GIV GBA-motif binding to rat Galpha-i3; percent of control (FP), % (concentration not given with the values); AID 1224905; Galpha-i3/FITC-GIV peptide fluorescence polarization, 90 min; stronger effect = lower value; scaled: aluminum fluoride 0%, vehicle 100%; 210,000 compounds, 0.42% hits; P08753;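 active means replicate mean at 85% of control or lower, very high polarization wells dropped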;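 further: wells of about 15 µL received 100 nL stock; the first replicate is given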
Target sequence (P08753 whole entry, looked up): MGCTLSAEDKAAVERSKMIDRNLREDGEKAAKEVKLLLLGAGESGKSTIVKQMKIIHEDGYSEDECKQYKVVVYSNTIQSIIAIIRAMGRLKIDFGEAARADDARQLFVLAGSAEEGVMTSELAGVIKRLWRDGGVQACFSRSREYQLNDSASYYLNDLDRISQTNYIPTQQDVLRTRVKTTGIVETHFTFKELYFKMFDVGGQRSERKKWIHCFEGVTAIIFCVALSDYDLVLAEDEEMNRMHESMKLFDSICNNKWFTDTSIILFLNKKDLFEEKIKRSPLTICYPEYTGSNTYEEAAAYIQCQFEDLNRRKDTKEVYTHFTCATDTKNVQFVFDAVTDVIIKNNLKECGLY
Sa growth inh second temp – further read-out of Sa growth inh, marked with its call; relative growth, %; measured here: growth at 30 °C;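 optical density after 20 h as mean of two plates; 100% = untreated growth and lower means inhibition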
Starred values were filed as active, the others as inactive; · = no result given; & = joins results of further samples. An unsorted share of the library; 0.8% or so of the library scored in one or more.

canonical_smiles	Sa growth inh	Sa growth inh second temp	HCMV NEC inh	GIV-Gai inh
Cc1cccc(NC(=O)N2CCC(c3nc(-c4ccccc4)no3)CC2)c1C	·	·	-48	101
CCCCC1(CO)C(=O)N(c2ccccc2)N(c2ccccc2)C1=O	111	85	-70	101
Cc1ccc(Cc2nc3ccccc3nc2SCC(=O)N2CCN(c3ccccc3F)CC2)cc1	89	94	·	100
COC(=O)c1ccccc1-n1c(CCC(=O)O)ccc1-c1ccccc1	112	78	27	106
COc1ccc(-c2cc(C(=O)Nc3c(C)nn(Cc4ccc(F)cc4)c3C)no2)cc1OC	100	86	-8	103
N/C(CC(=O)Nc1ccc(F)c(F)c1F)=N\O	91	88	-16	104
CCCNS(=O)(=O)c1ccc2[nH]c(=O)ccc2c1	114	87	·	100
CCc1nc2c(N(C)S(=O)(=O)c3ccc(C)cc3)nc3ccccc3n2n1	120	97	8	·
COC(=O)CCC(=O)c1oc2ccc(OC)cc2c1N	110	91	·	105
O=C(O)CSCC(=O)Nc1cccc(C(=O)O)c1	97	83	-21	100
CN1C(C(=O)NCc2ccc(F)cc2)=C(c2ccccc2)c2cc(Cl)ccc2S1(=O)=O	·	·	-19	104
Cc1cc2c(n1-c1ccc(C(=O)N3CCN(c4ccccc4)CC3)cc1)CCCCC2	104	74	·	101
O=C1/C(=C/c2ccccc2Cl)SC2N=C(c3ccccc3)NN12 (stereo unspecified)	87	88	-8	·
Cc1onc(-c2c(F)cccc2Cl)c1C(=O)NC(CN1CCOCC1)c1ccccc1 (stereo unspecified)	105	75	26	102
COc1ccc(-c2cc(C(F)(F)F)nc(NCc3ccc(Cl)cc3)n2)cc1	92	80	-4	95

Other entries:
canonical_smiles	Sa growth inh	Sa growth inh second temp	HCMV NEC inh	GIV-Gai inh
Cn1c(=O)cc(OCCCC(=O)NCc2ccccn2)c2ccccc21	96	80	-23	95
CCOC(=O)c1sc2ccc(S(=O)(=O)N3CC(C)CC(C)C3)cc2c1N (stereo unspecified)	123	91	·	103&105
CCOC(=O)N1CCC(NC(=O)c2nn(-c3ccc(OC)c(Cl)c3)c(=O)c3c2c2ccccc2n3C)CC1	94	99	2	111
Cc1cccc(N2CCN(C(=O)C3CCN(S(=O)(=O)c4cn(C)c(C)n4)CC3)CC2C)c1 (stereo unspecified)	·	·	-7	106
O=C(c1ccc(-n2nc(C(F)(F)F)c3c2-c2ccoc2CC3)cc1)N1CCCc2ccccc21	81	79	-21	102
CCC(NC(=O)NC1CCCCC1)c1ccccc1 (stereo unspecified)	112	101	-17	105
O=C(CCn1c(=O)oc2ccccc21)NCCCN1CCCC1=O	99	88	-18	98
Nc1nonc1-c1noc(-c2ccccc2)n1	108	97	-4	·
Cc1noc(C)c1S(=O)(=O)NCCN1CCN(c2ccccc2F)CC1	71	79	·	98
O=C1c2ccccc2C(=O)N1CCOc1ccccc1	105	106	4	101
CC(C)(C)N1CC(COc2ccccc2)OC1=O (stereo unspecified)	101	95	-14	97
O=S1(=O)C=C(Sc2nnnn2-c2ccccc2)c2ccccc21	-1.7*	-0.8*	-21	104
Cc1ccc(-n2c(=O)c3ccc(C(=O)NCc4ccccc4Cl)cc3n(Cc3ccccc3F)c2=O)cc1	101	89	-16	102
Cc1nnn(C23CC4CC(CC(CC(=O)Nc5ccc(Cl)cc5)(C4)C2)C3)n1	80	56	·	103
Cc1cccc(N2CCN(CC(=O)N(C)Cc3ccccc3)CC2C)c1 (stereo unspecified)	114	91	-18	·

Single values from the list.
Result for `CCOC(=O)N1CCC(NC(=O)c2nn(-c3ccc(OC)c(Cl)c3)c(=O)c3c2c2ccccc2n3C)CC1` in Sa growth inh: 94
Result for `CCC(NC(=O)NC1CCCCC1)c1ccccc1` (stereo unspecified) in GIV-Gai inh: 105
Result for `O=C(c1ccc(-n2nc(C(F)(F)F)c3c2-c2ccoc2CC3)cc1)N1CCCc2ccccc21` in GIV-Gai inh: 102

Going on with the list:
canonical_smiles	Sa growth inh	Sa growth inh second temp	HCMV NEC inh	GIV-Gai inh
CN(C)S(=O)(=O)c1cccc(CN2C(=O)NC3(CCCCCC3)C2=O)c1	87	89	-14	·
O=C(Nc1cccc(C(F)(F)F)c1)c1cnn(-c2cccc(F)c2)c1C1CCNCC1	91	90	·	100
COC(=O)c1cc(=O)nc2sc3ccccc3n12	99	88	-9	·
COc1ccc(Cl)cc1NC(=O)c1sc2nc3n(c(=O)c2c1C)CCC3	91	90	33	99
CCOC(=O)c1cc(=O)c2cc(Cl)ccc2n1C	·	·	-67	101
C=CCN(Cc1ccc(OC)c(OC)c1)C(=O)NC1CCCCC1	97	106	2	105
CC(=O)Nc1cccc(-n2nnc(SCc3cc(Cl)cc4c3OCOC4)n2)c1	107	88	-28	102
O=C(NCCc1ccccc1)c1ccc(Cn2c(SCc3ccc(F)cc3)nc3cccnc32)cc1	108	96	·	101
CCOC(=O)N1CCc2c(sc3c2c(=O)n(-c2ccccc2C(F)(F)F)c(=O)n3Cc2ccccc2C)C1	91	104	-5	108
CC(C)=CCOc1ccc2c3c(c(=O)oc2c1C)CCCC3	98	97	13	·
CCOC(=O)c1c(NC(=O)c2ccc(C)c(C)c2)sc2c1CCCCC2	92	86	-14	105
Cc1ccc(NS(=O)(=O)c2ccc3c(c2)CCCN3C(=O)C2CCC2)cc1Cl	62	93	·	106
Cc1c(Br)c(C(F)(F)F)nn1CC(=O)Nn1c(-c2ccc(F)cc2)nc2ccccc2c1=O	·	·	15	101
CN(C)C(=O)Cn1c(=O)n(C)c2ccccc21	94	100	15	113
COC(=O)c1scc(-c2ccc(C)cc2)c1S(=O)(=O)Nc1cc(C)c(Cl)cc1OC	58	49	·	111

2 of these compounds, reformatted.
The line under a structure holds: Sa growth inh | Sa growth inh second temp | HCMV NEC inh | GIV-Gai inh
COC(=O)c1cc(=O)nc2sc3ccccc3n12
  99 | 88 | -9 | ·
COc1ccc(Cl)cc1NC(=O)c1sc2nc3n(c(=O)c2c1C)CCC3
  91 | 90 | 33 | 99

The results go on:
canonical_smiles	Sa growth inh	Sa growth inh second temp	HCMV NEC inh	GIV-Gai inh
O=c1c2ccccc2cnn1CCc1nc2c3ccccc3ncn2n1	104	83	-30	101
Cc1onc(NC(=O)NC(=O)c2ccccc2F)c1Br	104	89	-12	104
Cc1nn(Cc2ccccc2)c(Cl)c1/C=N/NC(=O)c1cccnc1	107	89	-5	·
O=c1occ(CO)c(O)c1CN1CCc2ccccc2C1	99	97	0	·
O=C(CN1C(=O)c2ccccc2S1(=O)=O)Nc1cccnc1	114	99	·	98
CCOc1ccc(-c2nc(-c3cc(C)n(CCOC)c3C)cs2)cc1	77	87	8	·
Cc1nn(C(=O)c2ccccc2)c(C)c1CN1C(=O)c2ccccc2C1=O	118	96	-28	110
CSc1ccc(-c2nc3cc(C)ccn3c2Nc2ccc(C)cc2)cc1	100	94	17	104
COC(=O)c1scc2c(Oc3ccccc3C(F)(F)F)cc(C(F)(F)F)nc12	105	86	-43	107
Cc1cc(N2CCOCC2)n2ncc(-c3ccc(F)cc3)c2n1	·	·	-11	103
c1ccc(-n2ncc3c(N4CCC5(CC4)OCCO5)ncnc32)cc1	97	90	-12	94
CCN1CCN(C(=O)CCNC(=O)c2cc(OC)c(OC)c(OC)c2)CC1	97	93	-18	105
COc1ccc(NC(=O)c2cc(C)nn2-c2ccccc2)cc1	115	94	·	99
COc1ccccc1C(=O)COC(=O)Cc1ccc(Cl)cc1Cl	105	95	-21	·
O=c1sc2ccccc2c2nc[nH]c12	93	103	0	100

Already shown: two of the compounds above.
canonical_smiles	Sa growth inh	Sa growth inh second temp	HCMV NEC inh	GIV-Gai inh
O=c1c2ccccc2cnn1CCc1nc2c3ccccc3ncn2n1	104	83	-30	101
Cc1onc(NC(=O)NC(=O)c2ccccc2F)c1Br	104	89	-12	104

The list continues:
canonical_smiles	Sa growth inh	Sa growth inh second temp	HCMV NEC inh	GIV-Gai inh
COc1ccc(CN2C(=O)C(C)Oc3ccccc32)cc1 (stereo unspecified)	119	107	-6	102
O=C(NCCCN1CCOCC1)c1ccc(C2SCC(=O)N2CCc2ccccc2)cc1 (stereo unspecified)	·	·	-14	95
CCN(CC)C(=O)CCc1nc(CN2CCN(S(=O)(=O)c3ccc(Br)cc3)CC2)no1	98	103	-5	102
CCOc1ccc(NC(=O)C2CCN(S(=O)(=O)c3c(C)noc3/C=C/c3c(C)cc(C)cc3C)CC2)cc1	86	97	·	103
COc1cccc(N=Nc2c(N)[nH]n(-c3ccccc3)c2=O)c1	117	99	-30	96
CCCCC(=O)c1ccc(OC(C)C)cc1	92	97	-10	102
O=C(NCC1CCCCC1)c1cn(-c2ccccc2)nc1-c1cccs1	88	88	-12	·
COC(=O)c1c(SC)nc2ccccc2c1OCc1ccccc1Cl	79	86	·	100
CCNc1cc(N2CCOCC2)c2noc3c2c1C(=O)c1ccccc1-3	101	86	-102	-31*
COc1cccc(N2CC(c3nc4ccccc4n3CC(O)COc3ccccc3)CC2=O)c1 (stereo unspecified)	·	·	-14	106
COc1ccccc1NC(=O)Cn1c(SCC(=O)NCc2ccccc2)nc2ccccc21	102	87	·	103
NC1=NS(=O)(=O)c2ccccc21	88	82	6	104
CN(C)c1cccc(C(=O)OCC(=O)NCc2ccccc2)c1	105	93	-16	·
O=C(Nc1ccccc1)C1CCN(C(=O)c2cccs2)CC1	103	73	6	101
COc1ccc(S(=O)(=O)N(CC(=O)O)c2cc(Cl)ccc2OC)cc1OC	109	114	-12	99

The list continues:
canonical_smiles	Sa growth inh	Sa growth inh second temp	HCMV NEC inh	GIV-Gai inh
Cn1c(Oc2ccccc2)nc2c1c(=O)n(Cc1ccc(Cl)cc1Cl)c(=O)n2C	96	88	-31	99
COc1ccccc1NC(=O)Nc1c(SC)nsc1SC	94	91	-9	93
CC(C)(C)c1ccc(C(=O)N2CCN(c3cc(=O)n4nc(-c5ccccc5)sc4n3)CC2)cc1	·	·	-43	104
O=C(CCc1nc2ccccc2[nH]1)NCc1ccc2c(c1)OCO2	102	84	1	99
COc1cc(NC(=O)Cn2c3ccccc3c(=O)c3cc(Cl)ccc32)cc(OC)c1	·	·	13	109
CCC1=Nc2cc(C(=O)NC3CCC(C)CC3)ccc2Sc2ccc(C)cc21 (stereo unspecified)	98	88	1	102
Cc1cc(C)nc(N2C(=O)CC(Cc3ccc(Cl)cc3)C2=O)n1 (stereo unspecified)	·	·	-8	98
CCCn1c(C)ccc(-c2noc(CCCC(=O)NCC(C)C)n2)c1=O	·	·	-38	107
CCCNC(=O)CCc1nc(-c2ccc(C(C)(C)C)cc2)no1	90	96	-2	106
COc1ccc(-c2noc(C3CC(=O)N(c4ccc5c(c4)OCCO5)C3)n2)c(OC)c1 (stereo unspecified)	79	87	·	97
Cc1cccc(N(C)C(=O)Cn2c(=O)oc3cc(S(=O)(=O)N4CCCCC4)ccc32)c1	94	87	-35	106
CCn1c(C)cc(/C=C2/SC(=S)NC2=O)c1C	107	94	-51	246
N=c1sccn1CC(=O)NCc1cccs1	103	97	-19	·
Cc1csc(SCc2ccccc2C(=O)OCC(=O)Nc2nnc(-c3ccccc3)o2)n1	23	13	-39	·
O=C(CCC1CCCC1)NCCn1c(CCc2ccccc2)nc2cccnc21	·	·	10	109

Continuation:
canonical_smiles	Sa growth inh	Sa growth inh second temp	HCMV NEC inh	GIV-Gai inh
COc1cc(C2NC(=O)c3c(sc4c3CCN(C)C4)N2)ccc1OC(=O)c1ccccc1 (stereo unspecified)	101	88	-50	231
CCOC(=O)c1c(CC(C)C)csc1NC=C(C#N)C#N	48	29	-4	·
CCC(C)NC(=O)c1ccccc1-c1ccccc1C(=O)NC(C)CC (stereo unspecified)	100	95	-1	·
Cc1sc2nc(CSC(C)C(=O)Nc3nnc(C4CC4)s3)[nH]c(=O)c2c1C (stereo unspecified)	95	89	-4	·
Cc1cc(OCC#N)nc(N)n1	87	75	14	97
COc1ccc(N2CCN(C(=O)CCC(=O)NNc3nc4ccccc4c4nc(C)nn34)CC2)cc1	98	81	5	105
COc1ccc(OC)c(/C=C2\SC(=N)N(c3ccc4c(c3)OCO4)C2=O)c1	·	·	-37	105
COc1cc2oc(=O)c(CC(=O)NCCc3ccccc3F)c(C)c2cc1OC	90	83	-39	100
O=C(O)c1cc(S(=O)(=O)N2CCCC2)ccc1O	91	99	-11	103
COC(=O)C1=C(C)NC(C)=C(C(=O)OC)C1C(=O)OCc1nc2ccccc2c(=O)n1CC#N	95	97	-26	·
CCCN1CN=C(NS(=O)(=O)c2ccc(NC(C)=O)cc2)NC1	108	94	-9	101
COc1ccc(NCc2ccc[nH]2)cc1	105	89	-247	105
Cn1c(=O)c2c(O)c(C=NCc3cccnc3)c(=O)n(C)c2n(C)c1=O	105	100	8	106
CC(=O)NC(C(=O)N1CCN(S(=O)(=O)c2ccc(C)cc2)CC1)C(C)C (stereo unspecified)	110	97	7	·
N#CC1=C2SCN(Cc3ccccc3)CN2C(=O)CC1c1ccccc1 (stereo unspecified)	91	72	·	107
Cc1cc(C)c2c(-n3cccc3)nn(CC(=O)NCc3ccccc3)c2n1	·	·	-26	107
Cn1nc(OCC(N)=O)ccc1=O	97	116	16	100
O=C(COC(=O)C1CC=CCC1C(=O)OCC(=O)c1ccc(Cl)cc1)c1ccc(Cl)cc1 (stereo unspecified)	117	97	·	106

High-throughput results deposited in PubChem by ICCB-Longwood Screening Facility, Harvard Medical School.
